VACV Venus inh: vaccinia inhibition (Venus reporter); Potency, µM (highest dose often 36.5 µM), inactives show at the top dose activity change, negative = inhibition, actives largely listed as inhibitors; AID 720580; 330,000 compounds, 0.46% hits; Vaccinia virus Venus reporter expression, fluorescence; active means well fitted inhibition curve with a large enough effect; inconclusive means small, poorly fitted or top-dose-only effect; inactive means no such curve, though single readings can be large or run the other way; tested in A549 cells; note: nearly all actives have a fitted effect of over 30% in size; inactives centre near -10
VACV mCherry inh: vaccinia inhibition (mCherry reporter). Vaccinia virus mCherry reporter infection, fluorescence; about a quarter of the inactives have no number. 310,000 compounds, 0.63% hits. Potency, µM (top dose mostly 36.5 µM), for inactives: top-dose activity change, negative = inhibition, usual class: inhibitors; active = well fitted inhibition curve with a large enough effect; inconclusive = small, poorly fitted or top-dose-only effect; inactive = no such curve, though single readings can be large or run the other way; tested in A549 cells; note: nearly all actives have a fitted effect of over 35% in size; inactives centre near -10
* hit, by the source's call; i = inactive; ? = inconclusive; . = no result given; & = joins results of further samples; [ ] = dose if it differs, or a comment. % is set by controls: 0 for no effect and ±100 for the full control effect; potency is the fitted concentration of half-maximal effect. Rows were taken by chance. About 0.82% of those tested had a hit in this group.

Every second line gives: VACV Venus inh, VACV mCherry inh
CCOC(=O)C1=CCN(S(=O)(=O)c2ccc(Cl)cc2)C1c1ccc(C)cc1 (centres undefined)
→ -4.3%, 3.3%
CCOc1ccc(CNC(=O)c2ccc(-c3nc(CS(=O)(=O)c4ccccc4)c(C)o3)cc2)cc1
→ -17.3%, i
CSc1ccc(S(=O)(=O)N2CCN(Cc3ccc4c(c3)OCO4)CC2)cc1
→ -2.7%, -8.7%
c1ccc(-c2nnsc2Sc2ccccn2)cc1
→ -8.5%, -14.1%
COc1cc(C(=O)Nc2ccc(S(=O)(=O)N3CCOCC3)cc2)c([N+](=O)[O-])cc1OC
→ -5.5%, -4.9%
CC(=O)N1CCN(C(=O)c2ccc(Cl)c(S(=O)(=O)N3CCCC3)c2)CC1
→ -20.2%, -13.6%
COc1ccc(Cc2nnc(N/N=C/c3ccc(O)cc3O)[nH]c2=O)cc1OC
→ -14.4%, ?
Cc1cc(Cl)ccc1OCC(=O)NNC(=O)C1CSC2(C)CCC(=O)N12 (centres undefined)
→ -7.4%, -5.3%
Cc1nn(-c2ccccn2)c2nc(-c3cccs3)cc(C(=O)NCc3ccco3)c12
→ -27.3%, i[1.46 µM]
Cc1cn2c(=O)cc(COC(=O)COc3ccc(F)cc3)nc2s1
→ 3.1%, -12.1%
Cc1ccc(CCN2CCN=C2N(C)C)cc1
→ -3.3%, -7.4%
CCOc1ccc(S(=O)(=O)Nc2cc(OC)ccc2OC)cc1
→ ?, -22.3%
Cc1ccc(CN2CCN(C3CCOCC3)CC2CCO)cc1 (centres undefined)
→ -11.9%, -3.6%
CC(=O)Nc1ccc(NC(=O)CSc2nnc(NC(=O)c3cccc(F)c3)s2)cc1
→ -11.9%, -5.5%
Cc1cc(-c2ccccc2)n(-c2ccccc2)n1
→ -7.9%, i
CC1CC(Nc2cccc(O)c2)=CC(=O)O1 (centres undefined)
→ -6.4%, .
N=c1c(S(=O)(=O)c2ccccc2)cc2c(=O)n3ccccc3nc2n1C1CCCC1
→ -23.6%, -4.8%
COc1ccc(N(CC(=O)N2CCN(c3ccccc3)CC2)S(=O)(=O)c2c(C)nn(C)c2C)cc1
→ -5.9%, -1.2%
O=C/C(=C\Nc1ccc(Cl)cn1)c1nc2cc(Cl)ccc2o1
→ 4.3%, -6.3%
CCN(CC(=O)NCc1ccc(Cl)cc1)C(=O)CCOc1ccc(C)cc1
→ ?, -23.3%
COc1cccc(/C=N/NC(=O)C(=O)N2CCCCCC2)c1OC
→ -13.4%, -1.8%
Cc1cccc(N(C(=O)Cn2nnc(-c3ccc(F)cc3)n2)C(C(=O)NC(C)(C)C)c2ccncc2)c1 (centres undefined)
→ -10.3%, i
O=C(Nc1cccc(N2CCC(NCc3cnn(-c4ccccc4)n3)CC2)c1)c1cccnc1
→ -7.8%, -12.0%
COC(=O)C1=C(C)NC(=O)/C1=C\c1cccs1
→ -23.8%, .
CCN(CC)c1ccc(C(=O)NCc2ccc3c(c2)CCN3C(C)=O)cc1
→ -11.7%, -18.4%
CCOC(=O)C1CCN(C(=O)Nc2ccc(C)c(Cl)c2)CC1
→ 1.1%, i
Cc1ccc(S(=O)(=O)NC(=O)C2(C)CCN2C(=O)Cc2ccc(C(C)(C)C)cc2)cc1 (centres undefined)
→ 1.5%, -7.6%
CCNC(=O)N1C(CC(=O)OCC)C(=O)NC2CCCCC21 (centres undefined)
→ -19.3%, .
CCn1c(=O)cc(SCC(=O)Nc2cc(Cl)ccc2OC)c2ccccc21
→ -2.1%, -6.4%
CNC(=O)CSc1nnc(C(C)C)n1C
→ 1.3%, -3.7%
N#Cc1c(NC(=O)CSc2nc(N)cc(=O)[nH]2)sc2c1CCCCCC2
→ -21.3%, -22.7%
O=C(Nc1ccc(F)cc1F)c1ccc(-n2cnnc2)cc1
→ -0.5%, -9.3%
Cc1ccc(NC(=O)CN(C)S(=O)(=O)c2cccc3cccnc23)cc1
→ -1.5%, i
CC(C)OC(=O)c1c(N)n(CCCN2CCOCC2)c2nc3ccccc3nc12
→ -10.4%, -18.3%
Cc1ccc(N2CC(C(=O)N3CCC4(CC3)CC(=O)c3ccccc3O4)CC2=O)cc1C (centres undefined)
→ -26.2%, -15.2%
COc1ccc(-n2nc3c(c2NC(=O)C24CC5CC(CC(C5)C2)C4)CS(=O)C3)cc1 (centres undefined)
→ -12.0%, i
CCOC(=O)C1C(=O)OC2(CCOC(C)(C)C2)C1C(=O)OCC (centres undefined)
→ -5.8%, .
Cc1nc(-c2ccc(NC(=O)c3ccccc3C)cc2)cs1
→ ?, ?
O=C(CCN1CCN(CCO)CC1)Nc1cccc(Br)c1
→ -2.0%, -10.2%
Cc1ccccc1CN1CCN(CCCc2ccccc2)C(CCO)C1 (centres undefined)
→ 6.6%, -3.2%
C[C@]12C(=O)N(c3cccc(F)c3)C(=O)N1[C@@H]1c3ccccc3OC[C@@H]1[C@H]2c1ccccc1
→ -16.9%, ?
CCC(C)C(N)C1=NC(C(=O)N[C@@H](CC(C)C)C(=O)N[C@H](CCC(=O)[O-])C(=O)N[C@H](C(=O)N[C@H]2CCCCNC(=O)[C@H](CC(N)=O)NC(=O)[C@@H](CC(=O)[O-])NC(=O)[C@H](Cc3cnc[nH]3)NC(=O)[C@@H](Cc3ccccc3)NC(=O)[C@H]([C@@H](C)CC)NC(=O)[C@@H](CCCN)NC2=O)[C@@H](C)CC)CS1.[Zn+2] (some centres undefined)
→ -4.6%, -9.3%
COc1ccc2oc(-c3cccc(NC(=O)c4ccc(C#N)cc4F)c3)nc2c1
→ ?, ?
Cc1ccc(S(=O)(=O)N2CCOC2CNC(=O)C(=O)NCc2ccc(Cl)cc2)cc1 (centres undefined)
→ -29.5%, -9.1%
CCOc1ccccc1CN1CCNC(=O)C1CC(=O)NCCN1CCOC1=O (centres undefined)
→ -16.4%, -3.1%
Cc1ccc(NC(=O)CN2C(=O)COc3ccc(S(=O)(=O)N4CCCCC4)cc32)cc1Cl
→ -11.1%, -11.2%
O=C(CC[C@H]1O[C@@H](n2cnc3c(NC(=O)c4ccccc4)ncnc32)[C@H](O)[C@@H]1O)NCC(c1ccccc1)c1ccccc1
→ 0.0%, 7.7%
CC(C)(C)C(=O)CN1C(=O)NC(C)(Cc2ccc3c(c2)OCO3)C1=O (centres undefined)
→ -13.4%, -4.0%
CC(=O)N1CCSc2ccc(S(=O)(=O)Nc3ccccc3C)cc21
→ -14.1%, i
O=C(Cc1ccc(F)cc1)N1CCN=C1SCc1cccc([N+](=O)[O-])c1
→ -13.9%, -3.0%
CCOC(=O)C1=C(O)C(=O)N(CCCn2ccnc2)C1c1ccc(C)cc1 (centres undefined)
→ -12.2%, i
COc1ccc(NC(=O)C2CCC(=O)N2S(=O)(=O)c2ccc(C)cc2)cc1Cl (centres undefined)
→ -8.0%, -5.1%
Cc1ccc(-c2nc3ccc(Br)cn3c2Cc2ccccc2C(F)(F)F)cc1
→ -12.6%, -18.0%
CCCCn1c2ccc(F)cc2c2nnc(SCCN3CCOCC3)nc21
→ -28.0%, -19.7%
CSc1ccc(S(=O)(=O)Nc2ccccc2C(=O)N2CCOCC2)cc1
→ -9.0%, i
O=C(Nc1cccc(Cc2ccccc2)c1)Nc1cccc2[nH]c([C@@H]3O[C@H](CO)[C@@H](O)[C@H](O)[C@H]3O)nc12
→ 2.2%, 41.3%[activator]
COc1ccccc1N1CCN(c2ncnc3c2nc2n3CCCC2)CC1
→ -15.2%, -15.5%
Oc1oc(-c2ccccc2)nc1C=Nc1cccc2ccccc12
→ ?, -12.4%
Oc1c(CN2CCOCC2)cc(-c2ccccc2)cc1CN1CCOCC1
→ -2.8%, -9.8%
Cc1ccc(NS(=O)(=O)c2ccc(N/N=C/c3ccncc3)c([N+](=O)[O-])c2)c(C)c1
→ -12.4%, -22.0%

Carrying on.
Every second line gives: VACV Venus inh, VACV mCherry inh
Cc1ncsc1CCC(=O)N1CCCC(c2nc(-c3ccncc3)ncc2-c2ccccc2)C1 (centres undefined)
→ -14.3%, -24.7%
Cc1cc(/C=C2\SC(=Nc3ccccc3)NC2=O)c(C)n1-c1ccc(S(N)(=O)=O)cc1
→ ?, .
CC(=O)CSc1nc2c(c(=O)[nH]c(=O)n2C)n1CCCc1ccccc1
→ -12.3%, -19.2%
O=C(O)CC(CC(=O)Nc1ccc(-n2ccc(C(F)(F)F)n2)cc1)c1ccccc1 (centres undefined)
→ -3.5%, -10.0%
COc1ccc(N2CCN(S(=O)(=O)c3ccc(-c4coc(C)n4)cc3)CC2)cc1
→ 2.7%, 0.8%
N#CNC(=Nc1ccccc1)SCc1ccc(C(=O)O)cc1
→ -11.4%, -0.4%
O=C(Nc1ccc(C(=O)O)cc1)Nc1ccc(F)cc1F
→ -4.3%, i
Cc1ccccc1-n1c(=O)n(Cc2ccc(C(=O)O)cc2)c(=O)c2[nH]cnc21
→ -6.3%, -12.5%
CC(C)(C)n1ncc2c(=O)n(CC(=O)N3CCCCCC3)cnc21
→ -6.0%, .
O=S(=O)(CCC1CCCCN1)c1ccccc1 (centres undefined)
→ -15.3%, -13.9%
Cc1cc2c(sc3c(C)ccc(C)c32)c(C)n1
→ -12.0%, i
CCOC(=O)[C@H]1[C@H]2COc3ccc(C)cc3[C@@H]2N2C(=O)c3cc(F)c(F)cc3NC(=O)[C@@]12C
→ -7.9%, i
Cc1ccc(C2CC(C(F)(F)F)n3nc(C(=O)NCc4c(C)nn(C)c4C)c(Cl)c3N2)cc1 (centres undefined)
→ ?, ?
O=C(CSc1ccc(F)cc1)NCC1(N2CCOCC2)CCCCC1
→ -12.7%, -13.5%
CCc1nc2c(OCc3ccc(F)c(F)c3)cccn2c1N(C)C(=O)c1ccco1
→ 3.6%, i
CC1(C)CC(=O)C2=C(C1)OC(/N=C/N1CCCC1)=C(C#N)C2c1ccccc1 (centres undefined)
→ -17.4%, i
COc1ccc(NC(=O)c2ccc(-c3ccccc3Cl)o2)cc1
→ -8.2%, -28.1%
COc1ccccc1NC(=O)Cn1c(=O)n(-c2ccc(C)cc2)c(=O)c2ccc(C(=O)NCc3ccco3)cc21
→ -5.8%, -8.7%
Cc1ccc2nc(-c3ccc(Cl)c(NC(=O)COc4ccc(C(C)C)cc4)c3)oc2c1
→ -9.9%, -6.5%
CN1CCc2c(sc3c2C(=O)NC(c2ccc(C(C)(C)C)cc2)N3)C1 (centres undefined)
→ 10.8%, -4.2%
COC(=O)CSc1nnc(CNC(=O)c2cc(OC)cc(OC)c2)n1-c1ccc(F)cc1
→ -2.0%, -2.1%
Cc1ccc(C)c(CN2C(=O)c3ccccc3S(=O)c3ccc(C(=O)NCCC4=CCCCC4)cc32)c1 (centres undefined)
→ -18.5%, -10.7%
Cc1nc(-c2ccc(F)cc2)c(CC(=O)N(C)CC(=O)Nc2ccc(F)cc2)s1
→ -5.7%, -10.5%
COC(=O)CCCCCN1C(=O)NC(C2CC2)C(C(=O)OCc2ccccc2)=C1C (centres undefined)
→ -7.6%, i
CC(C)CNC(=S)N1CCC(NC(=O)c2ccco2)CC1
→ -1.0%, i
CC1CN(C2CCCCC2)C(=O)NC1=O (centres undefined)
→ -2.6%, -16.2%
COc1cc(SC)ccc1C(=O)N1CCN(c2ccccc2OC)CC1
→ -17.4%, -1.6%
Cc1ccc(CN2CCSc3ccc(C(=O)NCc4ccco4)cc32)cc1
→ -8.0%, -25.3%
O=C(CSc1n[nH]c(-c2ccccc2Br)n1)NCCN1C(=O)CSC1=O
→ -7.4%, -15.4%
COc1ccc(NC(=S)Nc2cccc(C(C)=O)c2)cc1OC
→ -4.4%, -4.2%
Cc1cccc(-c2noc(CNC(=O)c3ccco3)n2)c1
→ -9.2%&-10.7%, -9.8%&-4.6%
Cc1ccc(C)c(NC(=O)CSc2ncc3c(n2)-c2ccccc2N(Cc2ccccc2C)S3(=O)=O)c1
→ 20.2%, 7.5%
Fc1ccc(-n2ncc3c(SCc4cccnc4)ncnc32)cc1
→ -9.5%, -3.9%
O=C(CSc1nc2ccccc2s1)NCCOc1ccccc1
→ -5.9%, -4.5%
C[C@H](NC(=O)[C@@H](N)Cc1ccc(O)cc1)C(=O)N[C@@H](Cc1ccccc1)C(=O)NCC(=O)N[C@@H](Cc1ccc(O)cc1)C(=O)N1CCC[C@H]1C(=O)N[C@@H](CO)C(N)=O
→ -10.4%[3.33 µM], -18.6%[3.33 µM]
Cc1cccc(C(c2sc3nc(-c4ccco4)nn3c2O)N2CCN(Cc3ccccc3)CC2)c1 (centres undefined)
→ -9.4%, -1.6%
Cc1cccc(NC(=O)c2c(F)c(F)c(F)c(F)c2F)c1
→ -9.3%, -3.7%
Cc1ccc(C2C(C(=O)c3sc(-c4ccccc4)nc3C)=C(O)C(=O)N2CCN(C)C)o1 (centres undefined)
→ -2.1%, -7.6%
CC(C)(C)c1ccc(OCCn2nc(C(=O)O)c3ccccc3c2=O)cc1
→ -2.8%, -6.9%
CCOC(=O)C1(Cc2ccccc2C)CCCN(C(=O)CSC)C1 (centres undefined)
→ -22.0%, -12.7%
Cn1cccc1C1CCCN1CC(=O)Nc1c(Cl)cc(Cl)cc1Cl (centres undefined)
→ 7.7%, -16.6%
CS(=O)(=O)N1N=C(c2ccco2)CC1c1ccccc1Cl (centres undefined)
→ 13.0%, i

Whole records, quoted from the list. Order of values: VACV Venus inh, VACV mCherry inh
Cc1cccc(NC(=O)c2c(F)c(F)c(F)c(F)c2F)c1 is entered as -9.3%, -3.7%
Cc1ccc(C2C(C(=O)c3sc(-c4ccccc4)nc3C)=C(O)C(=O)N2CCN(C)C)o1 (centres undefined) is entered as -2.1%, -7.6%
